Assay outcomes: PubChem, several laboratories
LANA-H2A inh: blockers of LANA interaction with H2A/H2B – biochemical, FP readout, HTS, primary screen. cell-free LANA-H2A/H2B peptide, fluorescence polarization. inhibition, % (concentration not given with the values). hit rate 0.6% among 320,000; in the data active = inhibition mostly above about 10%, no sharp cut-off; inactive = mostly below about 6.7%;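 note: stock transfer was 7.5 nL into about 10 µL; 0% = median of vehicle wells and 100% = median of positive control wells; one replicate is shown; the record names a cut of 25% in any replicate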
HNF4A DNA FP: change in binding of human HNF4A to DNA, primary screen, biochemical, fluorescence polarization, FITC-DNA; AID 1224865, 2016; activity change, % at 10 µM; hit rate 0.3% among 360,000; 1 h; in the data active = activity change above about 30%, passing the limit was not always enough;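 note: controls were the assay level and a saturating level of protein; the project sought stronger binding though the title names inhibitors; some compounds called inactive have numbers as strong as hits; positive values seem to mean higher polarization but the record does not say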
Target sequence (P41235 whole entry, looked up): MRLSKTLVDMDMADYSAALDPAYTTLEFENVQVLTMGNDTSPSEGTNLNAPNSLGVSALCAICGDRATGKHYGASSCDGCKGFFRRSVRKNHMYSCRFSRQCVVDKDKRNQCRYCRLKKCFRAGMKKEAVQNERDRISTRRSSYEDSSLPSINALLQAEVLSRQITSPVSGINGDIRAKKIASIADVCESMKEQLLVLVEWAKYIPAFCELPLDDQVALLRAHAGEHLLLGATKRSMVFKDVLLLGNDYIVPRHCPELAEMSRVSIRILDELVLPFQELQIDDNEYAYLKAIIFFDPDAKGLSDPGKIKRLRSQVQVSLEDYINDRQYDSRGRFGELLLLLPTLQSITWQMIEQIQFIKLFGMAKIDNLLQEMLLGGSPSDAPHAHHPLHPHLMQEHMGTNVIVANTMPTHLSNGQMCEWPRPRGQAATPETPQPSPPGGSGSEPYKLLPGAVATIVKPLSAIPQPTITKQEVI
UCH37 inh: inhibitors of human UCH37 deubiquitinase, primary screen, biochemical, Ub-AMC cleavage, fluorescence; Ubiquitin carboxyl-terminal hydrolase isozyme L5 (Homo sapiens), Q9Y5K5; purified proteasome/UCH37; inhibition, % (concentration not given with the values); hit rate 0.33% among 330,000;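 active = mean of two replicates above 20%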;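 note: 0% = compound-free wells with enzyme and 100% = wells lacking proteasome; stock transfer was 100 nL into about 20 µL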
Target sequence (Q9Y5K5 whole entry, looked up): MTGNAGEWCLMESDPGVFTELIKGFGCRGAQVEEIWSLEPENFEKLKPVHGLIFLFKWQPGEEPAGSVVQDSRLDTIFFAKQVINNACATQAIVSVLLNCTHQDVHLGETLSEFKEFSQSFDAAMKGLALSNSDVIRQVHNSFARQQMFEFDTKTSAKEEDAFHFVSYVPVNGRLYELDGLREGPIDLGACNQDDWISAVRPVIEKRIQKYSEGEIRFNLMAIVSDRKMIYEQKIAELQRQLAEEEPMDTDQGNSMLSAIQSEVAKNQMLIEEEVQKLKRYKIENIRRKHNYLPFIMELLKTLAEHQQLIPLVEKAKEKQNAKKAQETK
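Test system – human UCH37 enzyme supplied as purified proteasome complex · Incubation – 30 min preincubation with enzyme, 25 min cleavage at room temperature · Detection – AMC fluorescence from Ub-AMC cleavage, excitation 355 nm, emission 460 nm · Benchmarks – no-proteasome wells (full inhibition) and compound-free wells (no inhibition)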
E coli growth: E. coli growth inhibition, primary screen, OD600 | Escherichia coli growth, 23 h; active compounds read low | OD600 absorbance (test concentration not listed) | hit rate 0.21% among 330,000;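 active = OD600 absorbance below the run mean of sample wells minus 3.6 SD, in any replicate, cut at about 0.56 in these data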;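 note: stock transfer was 300 nL into about 60 µL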
Beta2AR agonist: beta2AR agonists driving receptor internalization, primary screen, cell-based, FAP fluorogen, flow cytometry. Am2.2-beta2AR cells; reference of the scale not given here. response, % (no concentration beside the values). hit rate 0.43% among 340,000. AID 504454, 2011;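 active = response above a set limit, near 3 SD of response in nonfluorescent compounds, cut at about 42% in these data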;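 note: stock transfer was 100 nL into about 11 µL; a reference agonist was the positive control; negative values mostly stem from fluorescent compounds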
Vif A3G: inhibitors of Vif binding to APOBEC3G peptide, primary screen, biochemical, TR-FRET, GST-Vif 1-94, biotin-A3G peptide, dose response retest (AID 1117319); Virion infectivity factor (Human immunodeficiency virus type 1 group M subtype B (isolate …; TR-FRET GST-Vif / biotin-A3G peptide binding; higher % means a stronger effect; test concentration not given here; strong numbers were not always called active; inhibition, %; hits with a dose series show IC50 in µM; hit rate 0.57% among 260,000;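 active = above the screen mean plus three standard deviations and confirmed in dose response; inconclusive = results disagree or hit not tested in dose response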;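 note: Vif residues 1-94 fused to GST binding biotinylated APOBEC3G peptide 110-148; 0% = full assay without inhibitor and 100% = GST in place of GST-Vif; retest series ran down from 100 µM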
Bfl-1 A1 inh: caspase 3/7 activation in MEF A1-2A-BIM cells, primary screen, A1 inhibitor project, cell-based, luminescence, HTS. AID 2462, 2010. Caspase-Glo 3/7 luminescence, 3 h; percent of clofoctol response, vehicle zero. hit rate 0.066% among 330,000. caspase activation, % (no concentration beside the values);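 active = over half of replicate activation scores above 10%, or exactly half above 10 with the replicate mean above 10; inconclusive = replicate mean below 10 yet half the replicates above 10; inactive = over half of replicates below 10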;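 note: wells of about 30 µL received 50 nL stock; many hits fall short of the cut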
Active calls of the source: *; ? = inconclusive; . = no result given; + = active, no number.

SMILES	LANA-H2A inh	HNF4A DNA FP	UCH37 inh	E coli growth	Beta2AR agonist	Vif A3G	Bfl-1 A1 inh
CC/C(=N\NC(N)=O)c1c(O)[nH]c(=O)[nH]c1=O	0.9	0.6	0.3	0.68	5	.	0.1
CCC(CO)NC(=O)C1C=C2c3cccc4[nH]cc(c34)CC2N(C)C1 (centres undefined)	8.6	-36	-89	0.64	5	?	-1.0
O=C(CNC(=O)OCc1ccccc1)NCC(=O)Nc1ccc(Br)cc1C(=O)c1ccccc1	-0.3	-3.3	2.9	0.71	-3	-8%	-0.7
CN(C)/C=C(\C=[N+](C)C)c1[nH]ncc1[N+](=O)[O-]	2.7	-0.5	6.5	0.72	-3	27%	0.2
O=c1[nH]c(=S)n(C2CC2)c(O)c1/C=N/N1CCOCC1	0.3	6.9	12	0.67	-1	18%	-0.7
CN1CCN(c2ccc(NC(=O)C(C)(C)C)cc2)CC1	1.7	-0.5	-0.4	0.68	13	-2%	1.7
CC(C)NC(C)Cc1ccc(I)cc1 (centres undefined)	-0.3	-0.6	3.1	0.69	0	.	-0.3
COC1/C=C/C=C(\C)Cc2cc(O)c(Cl)c(c2)N(C)C(=O)CC(OC(=O)C(C)C)C2(C)OC2C(C)C2CC1(O)NC(=O)O2 (centres undefined)	.	-1.2	.	.	16	-2%	.
C/C(=N\NC(=O)c1ccccc1)c1c(O)n(C2CCCCC2)c(=O)[nH]c1=O	8.8	-0.1	7.1	0.7	4	18%	-1.0
CC(C)NC(=O)c1ccc(N2CC3CC(C2)c2cccc(=O)n2C3)c([N+](=O)[O-])c1 (centres undefined)	-10	-2.2	2.4	0.71	-4	4%	-0.1
O=C(COc1ccc2ccc(=O)oc2c1)N1CCC(C(=O)O)(c2ccccc2)CC1	2.5	4.3	-32	0.7	-6	.	-0.2
Cc1nn(Cc2ccccc2)c(C)c1C=C1C(=O)NC(=O)NC1=O	-0.5	-1.5	2.3	0.7	9	-8%	1.0
CSc1ccc(C(=O)C2CCCN(Cc3cccnc3)C2)cc1 (centres undefined)	3.1	1.2	.	.	-5	-1%	0.5
S=P(Nn1cnnc1)(c1ccc(Br)cc1)c1ccc(Br)cc1	-1.5	0.0	-0.9	0.66	3	4%	-0.2
CC1(C)CC(=O)C(C=NCCN2CCN(C(=O)Cc3ccccc3)CC2)=C(O)C1	2.0	3.0	1.4	0.72	3	-3%	-0.2
O=c1[nH]c(=S)n(-c2cccc(Cl)c2)c(O)c1C=NCCN1CCNCC1	2.9	1.6	6.6	0.64	-4	-13%	0.4
O=[N+]([O-])c1ccc(N2CCCCCC2)c2ncccc12	3.2	2.1	3.6	0.69	-10	4%	1.3
Cc1ccc(-n2c(O)c(C=Nc3ccc(Br)cn3)c(=O)[nH]c2=O)cc1	-4.1	0.5	2.2	0.7	-27	-5%	-1.0
NP(=O)(Oc1ccc(Cl)cc1)Oc1ccc(Cl)cc1	10	0.0	3.7	0.67	-2	1%	1.2
Cc1ccc2c(c1)C1CN(C)CCC1N2C(=O)c1cccs1 (centres undefined)	-0.6	-1.7	9.6	0.73	-3	17%	0.6
CCN(CC)CCN=C(C)c1c(O)n(-c2ccccc2OC)c(=O)[nH]c1=O	2.9	-2.6	4.4	0.69	0	1%	0.4
c1ccc(-c2nnc(C3CC(c4cccnc4)=NO3)o2)cc1 (centres undefined)	-6.6	-1.7	2.4	0.69	-8	.	0.0
O=[N+]([O-])c1cccc2c([As](=O)(O)O)cccc12	-5.0	-1.1	5.0	0.66	-2	11%	-0.3
CCNC(=O)NC(=O)C(C)OC(=O)c1c(C)nn(Cc2ccccc2Cl)c1Cl (centres undefined)	-2.7	-0.4	0.7	0.61	-1	5%	0.2
Cc1cccc(C)c1OP(N)(=O)Oc1c(C)cccc1C	2.0	-5.4	3.3	0.63	1	-4%	0.8
OC1(c2ccc(F)cc2)CC2CCC(C1)N2Cc1nnnn1C1CCCCC1 (centres undefined)	0.2	-3.7	-1.0	0.65	1	16%	-0.5
O=Cc1c(C(=O)O)n(Cc2ccc(Cl)cc2)c2ccccc12	9.6	81*	2.9	0.69	-2	.	-0.3
CCC(=NCCCN(CC)CC)c1c(O)n(C2CCCCC2)c(=O)[nH]c1=O	-8.3	5.5	5.5	0.74	3	-1%	-0.1
CC12CCC(=O)C=C1CC(N1CC1)C1C2CCC2(C)C(O)CCC12 (centres undefined)	.	-3.2	.	.	-2	-1%	.
CCc1cc2c(N3CCN(C)CC3)ncnc2s1	5.0	-0.4	2.2	0.72	-12	14%	-0.9
COC(=O)C1=C(c2cccc(OCc3ccccc3)c2)C[C@@H]2CC[C@H]1N2C(=O)NCCN1CCOCC1	-1.0	-2.1	1.5	.	-5	.	0.4
Oc1cccc(/C=N/NP(=S)(c2ccccc2)c2ccccc2)c1	-0.9	1.0	.	.	11	7%	0.7
CCCCCCN1CCN(c2ccccc2Cl)CC1	-1.7	-1.4	3.0	0.61	7	1%	-0.3
CCN1CCc2ccccc2C1	-6.0	-2.2	0.5	0.69	-4	-4%	-0.2
CN=C(SCc1cc2c(cc1Cl)OCO2)c1c(O)n(C)c(=O)n(C)c1=O	-4.4	-3.1	2.7	0.67	-1	3%	-0.6
Cc1ccccc1C(=O)N1Cc2cnnn2-c2ccccc2C1C#N (centres undefined)	.	3.4	.	.	-1	-3%	.
COC(=O)C1=C(c2cccc(OC)c2OC)C[C@@H]2CC[C@H]1N2C(=O)NCc1ccccc1	-0.8	0.2	-1.9	.	3	.	0.5
Cc1cccc(NC(=O)N2C[C@H]3C[C@@H](C2)c2cccc(=O)n2C3)c1	-6.0	-0.5	-2.7	0.79	3	.	-0.4
COC(=O)C1=C(c2ccc(F)cc2OCc2ccccc2)C[C@@H]2CC[C@H]1N2C(=O)NCc1ccccc1OC	2.1	6.3	0.8	.	4	.	3.1
CCCCCC1(C(C)C)C(=O)NC(=S)NC1=O	.	-3.4	.	.	0	6%	.
COc1ccc(/C=C/C2=CCN(C)CC2)cc1	-8.6	-0.1	-3.3	0.65	1	-6%	-0.4
CC(C)CCC1(CN2CCCC2=O)C(=O)NC(=O)NC1=O	2.8	-1.6	-3.7	0.75	2	0%	0.2
Cc1c(C(=O)N2CCC3(CC2)OCCO3)sc2ncnc(N3CCc4ccccc4C3)c12	-2.5	0.9	3.5	0.72	1	-2%	-0.1
O=C1OCCC1NC1=NCCC1 (centres undefined)	-6.0	2.1	-0.6	0.74	3	-7%	1.0
Cc1ccc(-c2cc(C(F)F)n3ncc(C(=O)N4CCC5(CC4)OCCO5)c3n2)cc1	4.7	-2.2	-24	0.73	-4	1%	-1.2
C=CCN1C(=O)/C(=C\c2ccc(N3CCOCC3)o2)C(=O)NC1=S	-10	56*	17	0.68	-3	-4%	1.1
Cc1ccc(Cn2ccccc2=N)cc1	0.6	-9.0	5.9	0.7	-8	-4%	0.9
O=C1CC(=O)N(c2cccc(C(F)(F)F)c2)C(=O)N1	-2.6	3.4	1.9	0.66	-4	-3%	1.7
Clc1ccccc1N1CCN(Cc2ccc3c(c2)OCO3)CC1	4.3	1.3	0.3	0.63	-3	.	1.3
O=C(C[N+]12CCC(CC1)C(CO)C2)c1ccc(Br)cc1 (centres undefined)	-1.1	0.1	4.5	0.66	-5	2%	-0.9
COC(=O)C1=C(c2cccc(OCc3ccccc3)c2)C[C@@H]2CC[C@H]1N2C(=O)NNCc1ccccc1	0.0	1.3	4.0	.	1	.	1.9
CCn1c(=O)n(CC(=O)N2CCC3(CC2)OCCO3)c(=O)c2ccccc21	1.5	-4.2	1.4	0.82	-7	6%	-0.7
O=C(CCC(=O)N1C[C@H]2C[C@@H](C1)c1cccc(=O)n1C2)NCc1ccccc1	3.9	3.4	-0.5	0.69	-3	.	1.2
CSc1ccc(C(=O)C2CCCN(C)C2)cc1 (centres undefined)	-0.5	0.2	4.1	0.62	0	-5%	0.4
Oc1ccc(/C=N/NP(=S)(c2ccccc2)c2ccccc2)cc1	3.6	0.9	.	.	4	-1%	0.8
CCOP(=S)(OCC)SCC(=O)NC(C)(CC)C(=O)O (centres undefined)	-0.3	-2.3	2.3	0.7	-2	3%	0.3
CC(C)(C)c1ccc(C(=O)OCC(=O)N2CCC(c3ccccc3)=N2)cc1	2.4	-1.8	2.1	0.7	38	5%	-0.7
O=C(C[n+]1ccn(CCCNP2(=O)C=C(c3ccccc3)OC(c3ccccc3)=C2)c1)c1ccccc1	2.6	3.4	1.2	0.62	-8	1%	0.3
COc1ccccc1CCNC1C2CC3CC(C2)CC1C3 (centres undefined)	2.6	-1.6	2.3	0.68	-5	2%	0.5
COC(=O)c1c(C)n(Cc2ccco2)c2ccc(O)cc12	0.4	-2.1	2.0	0.71	3	6%	0.7

An excerpt from above in order of molecular weight, largest number first:
SMILES	LANA-H2A inh	HNF4A DNA FP	UCH37 inh	E coli growth	Beta2AR agonist	Vif A3G	Bfl-1 A1 inh
CCn1c(=O)n(CC(=O)N2CCC3(CC2)OCCO3)c(=O)c2ccccc21	1.5	-4.2	1.4	0.82	-7	6%	-0.7
CC(C)(C)c1ccc(C(=O)OCC(=O)N2CCC(c3ccccc3)=N2)cc1	2.4	-1.8	2.1	0.7	38	5%	-0.7
CSc1ccc(C(=O)C2CCCN(C)C2)cc1 (centres undefined)	-0.5	0.2	4.1	0.62	0	-5%	0.4

(listing goes on)
SMILES	LANA-H2A inh	HNF4A DNA FP	UCH37 inh	E coli growth	Beta2AR agonist	Vif A3G	Bfl-1 A1 inh
O=[N+]([O-])O[C@H]1CO[C@H]2[C@@H]1OC[C@H]2O[N+](=O)[O-]	-6.4	-0.7	2.3	.	0	.	1.4
COc1ccc(-n2c(O)c(/C=C3\C=Nc4ccc(Br)cc43)c(=O)[nH]c2=O)cc1	13*	0.0	7.6	0.68	35	.	-2.2
CCCCOc1ccc(CCN)cc1Cl	2.8	-0.6	1.5	0.65	26	-13%	0.3
COC(=O)c1ccccc1N=Cc1c(O)[nH]c(=S)[nH]c1=O	-3.0	5.4	-8.1	0.71	1	-18%	-0.1
O=C(c1cccc(N2CCCC2=O)c1)N1CCC2(CC1)OCCO2	-2.3	-0.3	5.6	0.7	2	31%	0.1
O=C1C(=O)c2ccccc2-c2ccccc21	-12	3.0	87*	.	103*	10%	0.5
CN(C)C1(CNC(=O)c2ccc(Cl)c(S(=O)(=O)NCc3ccco3)c2)CCCCC1	-0.1	4.4	2.5	0.72	-3	0%	-0.3
CC(NC(=O)Oc1ccccc1)C(c1cccs1)N1CCOCC1 (centres undefined)	3.1	0.2	1.4	0.66	-3	-6%	0.1
CSC(=Nc1ccccc1)c1c(O)n(C)c(=O)n(C)c1=O	1.8	1.7	-1.3	0.69	-1	15%	-0.5
CNCC(O)c1ccc(O)cc1 (centres undefined)	4.3	-2.4	1.4	0.65	.	25%	0.7
CCCCn1c(=O)c(C(=O)Nc2ccccc2S(N)(=O)=O)c(O)c2ccccc21	-0.2	-0.9	-5.8	0.72	3	4%	0.3
CCOP(=S)(OCC)Oc1nc(Cl)c(Cl)cc1Cl	+	1.2	-1.7	0.69	-4	.	0.2
Cc1cc(/C=C2/C(=O)NC(=O)N(C)C2=O)c(C)n1-c1ccccc1	-0.4	-3.5	-16	0.72	-5	.	0.1
COc1cc(C2(C#N)CCN(C)CC2)cc(OC)c1OC	.	4.6	2.5	0.69	6	2%	.
COc1cccc(-n2nc(C(=O)N3CCC4(CC3)OCCO4)c3ccccc3c2=O)c1	0.8	4.2	7.3	0.78	5	11%	2.6

Some of the compounds tested; count on the stated rates, not on these rows.
